# MT1-MMP promoter – inhibitors of MT1-MMP promoter transcription, cell-based, luciferase reporter, luminescence (AID 618); MT1-MMP promoter luciferase reporter cells, luminescence; calls from a first round at 10 µM; hits with a dose series show EC50 in µM; 87,000 tested, 0.62% active;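 active = over half of the reporter light lost at 10 µM or EC50 under 50 µM; inactive = the rest and hits that failed the dose series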;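 also: actives suppress MT1-MMP promoter-driven transcription so potencies describe inhibitors; HT1080 fibrosarcoma cells; overnight exposure; toxic or luciferase-blocking compounds were not removed from the actives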
# Calls only; i = inactive. The list is partial (hit frequency here may not be typical).
> CCC/C=C(\CCC)C(NC(=O)c1cccs1)c1ccc(C(=O)OC)cc1 (stereo unspecified)
  MT1-MMP promoter: i

> CCOc1ccc(NC(=O)Nc2cccs2)cc1
  MT1-MMP promoter: i

> CCC1=C2CC[C@H]3C(=O)N(C)C(=O)[C@H]3[C@H]2[C@@]2(C)C(=NCC(=O)OC)OC(=O)N2C1=O
  MT1-MMP promoter: i

> O=C(COc1ccc(Cl)cc1Cl)N1CCCC1
  MT1-MMP promoter: i

> O=C(NCCF)[C@H]1C[C@@H]1[C@H](NP(=O)(c1ccccc1)c1ccccc1)c1ccccc1
  MT1-MMP promoter: i

> C[C@H](CO)NC(=O)[C@H]1C[C@@H]1[C@H](NP(=O)(c1ccccc1)c1ccccc1)c1ccccc1
  MT1-MMP promoter: i

> O=C(NCc1ccccc1)c1ccc(Oc2ccc(C(=O)NCc3ccccc3)cc2)cc1
  MT1-MMP promoter: i

> Cc1cc(C)c2nc(N3CCC(C(=O)NCCCN4CCCCC4)CC3)sc2c1
  MT1-MMP promoter: i

> COc1ccc(CCNC(=O)c2c(-c3ccccc3Cl)noc2C)cc1
  MT1-MMP promoter: i

> CO/N=C/NC(=O)N1OC[C@@H]2COc3ccc4ccccc4c3[C@@H]21
  MT1-MMP promoter: i

> COc1ccc(S(=O)(=O)Nc2cc3c4c(oc3c3ccccc23)CC(C)(C)CC4=O)cc1
  MT1-MMP promoter: i

> CCC(C)(C)NC(=O)Cc1ccccc1OC
  MT1-MMP promoter: i

> CCCCCNC(=O)CN(c1ccc2c(c1)OCO2)S(C)(=O)=O
  MT1-MMP promoter: i

> N#C/C(=C\c1ccccc1Cl)C(=O)NC(=O)Oc1ccccc1
  MT1-MMP promoter: i

> CCN1CCN(C(=O)CSc2cc(=O)n(CC)c3ccccc23)CC1
  MT1-MMP promoter: i

> Cc1cccc(NC(=O)CCS(=O)(=O)c2cccc3nsnc23)c1C
  MT1-MMP promoter: i

> COc1ccc(-c2nnc(SC(C)C(=O)Nc3nccs3)n2Cc2ccccc2)cc1OC (stereo unspecified)
  MT1-MMP promoter: i

> C(/C=C/C=C/Nc1ccccc1)=Nc1ccccc1
  MT1-MMP promoter: i

> COC(=O)c1ccc(CSc2nnc(CNC(=O)c3ccc(OC)cc3)o2)o1
  MT1-MMP promoter: i

> CC(=O)NC1C(=O)N(CC(C)C)c2ccccc21 (stereo unspecified)
  MT1-MMP promoter: i

> COc1ccc(OC)c(C2=NOC(C(=O)NCc3ccco3)C2)c1 (stereo unspecified)
  MT1-MMP promoter: i

> CC(=NCCc1ccccc1)C1=C(O)CCC1=O
  MT1-MMP promoter: i

> CNC(=O)[C@]1(C)C[C@H]1[C@H](NC(=O)[C@]1(C)C[C@H]1[C@H](NC(=O)OCc1ccccc1)c1ccccc1)c1ccccc1
  MT1-MMP promoter: i

> COc1ccc(C(=O)CC2OC(=O)c3c2ccc(OC)c3OC)cc1 (stereo unspecified)
  MT1-MMP promoter: i

> C=CCn1c(SCCOc2ccc(OC)cc2)nnc1C(NC(=O)c1ccc(OC)cc1)C(C)C (stereo unspecified)
  MT1-MMP promoter: i

# Brought forward from above: 3 compounds, followed by the next part.
> CNC(=O)[C@]1(C)C[C@H]1[C@H](NC(=O)[C@]1(C)C[C@H]1[C@H](NC(=O)OCc1ccccc1)c1ccccc1)c1ccccc1
  MT1-MMP promoter: i

> COc1ccc(C(=O)CC2OC(=O)c3c2ccc(OC)c3OC)cc1 (stereo unspecified)
  MT1-MMP promoter: i

> C=CCn1c(SCCOc2ccc(OC)cc2)nnc1C(NC(=O)c1ccc(OC)cc1)C(C)C (stereo unspecified)
  MT1-MMP promoter: i

> Cc1cc(C)n(C(=O)c2ccc(S(=O)(=O)N3CCOCC3)cc2)n1
  MT1-MMP promoter: i

> COc1cc(CNn2nnnc2N)cc(Br)c1OCC(=O)NC(C)(C)C
  MT1-MMP promoter: i

> O=C(CCn1c(=O)c2ccccc2n(Cc2ccccc2)c1=O)NCc1ccc2c(c1)OCO2
  MT1-MMP promoter: i

> CN(Cc1ccccc1)C(=O)c1cccc(N2C(=O)NC3CC2(C)Oc2ccccc23)c1 (stereo unspecified)
  MT1-MMP promoter: i

> O=C(O)CSc1nnc(SCc2cccc3ccccc23)s1
  MT1-MMP promoter: i

> CCc1cccc(NC(=O)COc2ccccc2)c1
  MT1-MMP promoter: i

> O=S(=O)(Cc1ccccc1)N1CCN(c2ccccc2)CC1
  MT1-MMP promoter: i

> CC(C)NCCOc1cccc(Br)c1
  MT1-MMP promoter: i

> CCOC(=O)Cc1csc(N)n1
  MT1-MMP promoter: i

> COc1cc2c(cc1NC(=O)CSc1nnc(Cc3cccs3)n1Cc1ccco1)oc1ccccc12
  MT1-MMP promoter: i

> CCOCCCNC(=O)c1ccc(N(C)S(=O)(=O)c2ccc(OC)cc2)cc1
  MT1-MMP promoter: i

> COC(=O)[C@@]1(Cc2ccc(OC)cc2)[C@H]2c3cc(C(=O)N(C)C)n(Cc4nc5ccccc5[nH]4)c3C[C@H]2CN1C(=O)c1ccccc1
  MT1-MMP promoter: i

> O=C(CN(Cc1ccccc1)S(=O)(=O)c1ccccc1)N1CCOCC1
  MT1-MMP promoter: i

> COc1ccc(Nc2nc(Nc3ccc(OC)cc3)nc(SC3=NCCS3)n2)cc1
  MT1-MMP promoter: i

> CC(=O)c1c(C)[nH]c2ccccc2c1=O
  MT1-MMP promoter: i

> CNC(=O)CN(c1ccc(F)cc1)S(=O)(=O)c1cc(C)ccc1OC
  MT1-MMP promoter: i

> CC(C)c1ccccc1NC(=O)c1cccc(NC(=O)c2ccccc2)c1
  MT1-MMP promoter: i

> O=C(c1ccco1)N1CCN(Cc2nc3ccccc3c(=O)n2-c2ccc(F)cc2)CC1
  MT1-MMP promoter: i

> CCOC(=O)c1sc(C)c2c(=O)n(CC(=O)c3ccc(Br)cc3)nnc12
  MT1-MMP promoter: i

> Cc1cccc(NC(=O)CCc2c(C)nc3ncnn3c2C)n1
  MT1-MMP promoter: i

> CCCNS(=O)(=O)c1ccc(NC(=O)c2cccnc2)cc1
  MT1-MMP promoter: i

> CC(C)NC(=O)c1cccc(Br)c1
  MT1-MMP promoter: i

> CCn1c(SCc2nc3ccccc3c(=O)[nH]2)nnc1-c1ccncc1
  MT1-MMP promoter: i

> CCOC(=O)COc1cc(Br)c(C2NC(=O)NC(C)=C2C(C)=O)cc1OCC (stereo unspecified)
  MT1-MMP promoter: i

> CCC(C)(C)NC(=O)Cc1ccc(OC)c(OC)c1
  MT1-MMP promoter: i

# (continued)
Structure	MT1-MMP promoter
O=C(NCCO)c1cccc(Cl)c1	i
COc1ccc(NC(=O)CC(C)C)c(OC)c1	i
CSc1cccc(NC(=O)CN(c2ccccc2)S(=O)(=O)N(C)C)c1	i
Cc1ccc(NC(=O)NC2CCCN2S(=O)(=O)c2ccc(Cl)cc2)cc1 (stereo unspecified)	i
CCOCCCNC(=O)c1ccc(Br)cc1	i
CCOC(=O)N1CCC(n2c(SCC(=O)OCc3ccccc3)nc3ccsc3c2=O)CC1	i
Cc1cc(C)cc(Oc2ncnc3c2ncn3Cc2c(Cl)cccc2Cl)c1	i
CCCCNC(=O)C1CC(=O)N(C2CCCC2)C1 (stereo unspecified)	i
CC(Oc1ccc(F)cc1)C(=O)Nc1ccc2ccccc2c1 (stereo unspecified)	i
COC(=O)c1c(NC(=O)C2CCCO2)sc2c1CCC2 (stereo unspecified)	i

# Other results.
Structure	MT1-MMP promoter
O=C(Nc1ccc(S(=O)(=O)N2CCc3ccccc3C2)cc1)c1ccccc1	i
Cc1cc(C)nc(NS(=O)(=O)c2ccc(NC(=O)COc3ccccc3)cc2)n1	i
Clc1ccc(C2[C@H]3CN(Cc4cccnc4)[C@H](c4ccccc4)C34CC2(c2cccnc2)C4)cn1 (stereo partly specified)	i
O=C(Nc1ccccc1)c1cccc(S(=O)(=O)NCc2ccco2)c1	i
O=C1C=C(c2ccc(Cl)cc2)OC2(CCCC2)O1	i
C[C@@H](C(=O)Nc1ccc2ccccc2c1)[C@H]1C[C@]1(C)[C@H](NC(=O)c1cccnc1)c1ccccc1	i
COc1ccc(NC(=O)c2cc3n(n2)C(C(F)(F)F)CC(c2ccc(OC)cc2)N3)cc1 (stereo unspecified)	i
O=S(=O)(Nc1ccc(S(=O)(=O)Nc2cccc3ccccc23)cc1)c1ccccc1	i
COC(=O)[C@@]1(Cc2ccc(OC)cc2)[C@H]2c3cc(C(=O)N4CCCC4)n(Cc4ccc(Cl)c(C(F)(F)F)c4)c3C[C@H]2CN1C(=O)c1ccccc1	i
Cc1ccc(CNC(=O)c2ccc3c(=O)n(CCCN4CCCC4=O)c(=S)[nH]c3c2)cc1	i

# A draw from above in order of length of the SMILES, high to low:
Structure	MT1-MMP promoter
COC(=O)[C@@]1(Cc2ccc(OC)cc2)[C@H]2c3cc(C(=O)N4CCCC4)n(Cc4ccc(Cl)c(C(F)(F)F)c4)c3C[C@H]2CN1C(=O)c1ccccc1	i
C[C@@H](C(=O)Nc1ccc2ccccc2c1)[C@H]1C[C@]1(C)[C@H](NC(=O)c1cccnc1)c1ccccc1	i
Clc1ccc(C2[C@H]3CN(Cc4cccnc4)[C@H](c4ccccc4)C34CC2(c2cccnc2)C4)cn1 (stereo partly specified)	i
COc1ccc(NC(=O)c2cc3n(n2)C(C(F)(F)F)CC(c2ccc(OC)cc2)N3)cc1 (stereo unspecified)	i
Cc1cc(C)nc(NS(=O)(=O)c2ccc(NC(=O)COc3ccccc3)cc2)n1	i
O=C(Nc1ccc(S(=O)(=O)N2CCc3ccccc3C2)cc1)c1ccccc1	i

# Next part.
Structure	MT1-MMP promoter
COC(=O)c1ccc(C(NC(=O)OCc2ccccc2)/C(=C/[C@@H](C)C(=O)NCc2cc(F)cc(F)c2)c2cccnc2)cc1 (stereo partly specified)	i
Cn1c(=O)cc(N)n(Cc2ccccc2)c1=O	i
COC(=O)[C@@]1(C)C=C[C@@H](Cc2ccccc2)N1C	i
O=C(CCCn1c(SCC(=O)c2ccccc2)nc2ccccc2c1=O)NCC1CCCO1 (stereo unspecified)	i
COC(=O)[C@@]1(Cc2ccc(F)cc2)[C@@H]2[C@@H](CC(=O)[C@H]2CC(=O)C(=O)N2CCCC2)CN1C(=O)c1ccccc1	i
Cc1nc2ccccc2n1CCc1nc2c3ccccc3nc(=S)n2[nH]1	i
O=C(NCC1CCCO1)c1ccc(CS(=O)(=O)c2ccc(Cl)cc2)o1 (stereo unspecified)	i
COC(=O)c1cccc(C23CC4(C2)[C@H](CN(CC2CCCCC2)[C@@H]4c2ccccc2)C3c2ccc(C(F)(F)F)cc2)c1 (stereo partly specified)	i
NNC(=O)c1nnn(-c2nonc2N)c1-c1cccs1	i
CC1CCN(C(=O)CCCNC(=O)Cn2cnc3sc4c(c3c2=O)CCCC4)CC1	i

# As a working copy, part of the list above.
Structure	MT1-MMP promoter
Cc1nc2ccccc2n1CCc1nc2c3ccccc3nc(=S)n2[nH]1	i
O=C(NCC1CCCO1)c1ccc(CS(=O)(=O)c2ccc(Cl)cc2)o1 (stereo unspecified)	i
COC(=O)c1cccc(C23CC4(C2)[C@H](CN(CC2CCCCC2)[C@@H]4c2ccccc2)C3c2ccc(C(F)(F)F)cc2)c1 (stereo partly specified)	i
NNC(=O)c1nnn(-c2nonc2N)c1-c1cccs1	i
CC1CCN(C(=O)CCCNC(=O)Cn2cnc3sc4c(c3c2=O)CCCC4)CC1	i

# (cont.)
Structure	MT1-MMP promoter
CCCCCC/C(C)=C1/SC(=S)NC1=O	i
CCCCNC(=O)C1CCCNC1=O (stereo unspecified)	i
COC(=O)C(O)(CC(=O)Nc1ccc(C)c(F)c1)C(F)(F)F (stereo unspecified)	i
CCOc1cc(CN2CCN(c3cccc(C(F)(F)F)c3)CC2)ccc1OC	i
CCC(C)NS(=O)(=O)c1ccc(NS(=O)(=O)c2ccc(F)cc2)cc1 (stereo unspecified)	i
COC(=O)C1=C(C)N(CCCC(=O)O)C(=O)NC1c1cccc(Cl)c1Cl (stereo unspecified)	i
O=C(NC1CCCC1)c1cccc(NC(=O)c2ccco2)c1	i
CNC1=C(Br)C(=O)c2ccncc2C1=O	i
COC(=O)C(C)N(C(=O)c1cccc2ccccc12)c1c(C)cccc1C (stereo unspecified)	i
Cc1ccc(-c2nnc(N3CCCCC3)c3ccccc23)cc1S(=O)(=O)NCC1CCCO1 (stereo unspecified)	i
COC(=O)[C@@]1(Cc2ccc(OC)cc2)[C@@H]2C(=CC(=O)[C@H]2CC(=O)C(=O)N(C)C)CN1C(=O)c1ccccc1	i
COc1ccc(-c2cc(C(F)(F)F)n3nc(N)nc3n2)cc1	i

# Assay outcomes: PubChem BioAssay, Sanford-Burnham Center for Chemical Genomics
